HPGD block – inhibitors of human 15-hydroxyprostaglandin dehydrogenase (HPGD); Potency, µM, without a hit: at the highest dose activity change, negative = inhibition, usual class: inhibitors; P15428; purified HPGD, NADH fluorescence kinetic, PGE2 substrate; hit rate 4.3% among 150,000; active = well fitted inhibition curve with a large enough effect (not every such curve was filed as active); inconclusive = small, poorly fitted or top-dose-only effect, or another doubt; inactive = no such curve, though single readings can be large or run the other way;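 also: top concentration of the series not given in the record; plate controls included wells without enzyme; inactives centre near -10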
Target sequence (P15428 whole entry, looked up): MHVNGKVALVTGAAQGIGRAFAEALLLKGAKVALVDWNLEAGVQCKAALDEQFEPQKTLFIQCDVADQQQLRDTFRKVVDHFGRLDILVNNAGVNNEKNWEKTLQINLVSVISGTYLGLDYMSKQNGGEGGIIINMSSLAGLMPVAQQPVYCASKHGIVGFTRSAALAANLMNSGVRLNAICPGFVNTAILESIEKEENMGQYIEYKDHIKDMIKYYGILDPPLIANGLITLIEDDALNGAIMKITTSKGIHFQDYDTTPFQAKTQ
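20 nM HPGD preincubated 15 min at room temperature with compound in 50 mM Tris-HCl pH 8, 0.01% Tween 20. Started with 1 mM NAD+ and 30 uM prostaglandin E2; NADH fluorescence (360/450 nm) read 5 times over 30-s intervals, last minus first.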
The depositor's hits bear a star; u = inconclusive; & = joins results of further samples. % is scaled to controls: 0 for no effect and ±100 for the full control effect; potency is read from the fitted curve at half-maximal effect. This is a subset. The share of hits here may be higher or lower than overall.

Start of the data: the first three entries (preview)
SMILES | HPGD block
CC(=O)N1CCc2cc(S(=O)(=O)NC(CC(C)C)C(=O)N3CCn4c3nc3ccccc34)ccc21 (stereo not given) | -2%
COc1ccccc1NC(=O)c1ccc(NC(=O)COC(=O)C2CC2C)cc1 (stereo not given) | -13%
CCC(=O)N1CCc2cc(S(=O)(=O)NCCCN(CC)Cc3ccccc3)ccc21 | -3%

Main list (from the top)
SMILES | HPGD block
CC(=O)N1CCc2cc(S(=O)(=O)NC(CC(C)C)C(=O)N3CCn4c3nc3ccccc34)ccc21 (stereo not given) | -2%
COc1ccccc1NC(=O)c1ccc(NC(=O)COC(=O)C2CC2C)cc1 (stereo not given) | -13%
CCC(=O)N1CCc2cc(S(=O)(=O)NCCCN(CC)Cc3ccccc3)ccc21 | -3%
Cc1cccc(N2CCN(c3ccc(N4C(=O)CCCC4=O)cc3[N+](=O)[O-])CC2)c1C | -7%
O=C(NCCCN1CCOCC1)c1ccc(CNS(=O)(=O)c2ccc(Br)cc2)cc1 | -10%
Cc1ccc(S(=O)(=O)Nc2ccc(-c3nc4ccc(C)cc4s3)cc2)cc1 | u
Cc1ccc(CNC(=O)C2CCN(S(=O)(=O)c3cccs3)CC2)o1 | -25%
CCCCN(CC)C(=O)CN(C)S(=O)(=O)c1cccc2nsnc12 | -9%
C(#Cc1ccccc1)C[N+]1(CC#Cc2ccccc2)CCCC1 | -4%
COc1ccc(N=C(N)N=C(N)N)c(OC)c1 | -9%
C=CCN(CCNP(=O)(OCC)OCC)CP(=O)(OCC)OCC | -2%
O=C(CN1C(=O)c2ccccc2C1=O)NN1C(=O)c2ccccc2C1=O | -26%
CC(C)(C)NC(=O)C(c1ccccc1)N(Cc1ccco1)C(=O)c1csnn1 (stereo not given) | -1%
CCOc1cc2nc(-c3ccc(OC)c(OC)c3)nc(N3CCOCC3)c2cc1OC | u
COC(=O)c1ccc(-c2nc(-c3ccc(Br)o3)no2)cc1 | -14%

3 entries from above, set out differently.
> CCCCN(CC)C(=O)CN(C)S(=O)(=O)c1cccc2nsnc12
  HPGD block: -9%

> C(#Cc1ccccc1)C[N+]1(CC#Cc2ccccc2)CCCC1
  HPGD block: -4%

> COc1ccc(N=C(N)N=C(N)N)c(OC)c1
  HPGD block: -9%

Later entries
SMILES | HPGD block
O=C(Nc1ccc2c(c1)OCCO2)C1CCN(c2cnccn2)CC1 | -15%
N[C@@H](Cc1cnc[nH]1)C(=O)O | -16%
COc1ccc(-c2cc(CCCC(=O)NCc3ccccn3)no2)cc1 | -20%
CCc1ccc(CNc2ccc(N3CCN(C(C)=O)CC3)cc2)cc1 | -13%
Brc1ccc(-c2nnc(SCCC3OCCCO3)o2)cc1 | -5%
c1ccc(-c2csc3nnc(SCc4ccc5c(c4)OCCO5)n23)cc1 | -1%
c1ccc(OCc2nn3c(-c4ccccn4)nnc3s2)cc1 | -20%
O=C1CSC(c2cn(-c3ccccc3)nc2-c2cc3ccccc3oc2=O)N1Cc1ccccc1 (stereo not given) | u
COc1cc(OC)c2c(-c3cccc(-c4ccc(C(F)(F)F)cc4)c3)cc(=O)oc2c1 | -7%
O=C(c1ccc2c(c1)OCO2)N1CCCC1 | u
CCN1CCN(C(=S)c2ccc(Cl)c(Cl)c2)CC1 | u
COc1cccc(NS(=O)(=O)c2ccc3[nH]cc(C(=O)NCCN4CCOCC4)c(=O)c3c2)c1 | -17%
O=C(O)CCc1nc(-c2ccc(Cl)cc2)no1 | -7%
O=S(=O)(NCc1cccs1)c1cccc(S(=O)(=O)N2CCCCC2)c1 | -16%
COc1ccccc1-c1ccc2ncnc(N3CCN(C)CC3)c2c1 | u
CCCCCCCCOC(=O)CCc1c(C)[nH]c(=S)[nH]c1=O | -9%
COc1cccc(/C=C/C(=C2/C(=O)N(c3ccccc3)N=C2C)c2ccc(Br)cc2)c1OC | -13%
O=C(Nc1cccc(F)c1)c1coc(=O)c(Br)c1 | u
Cc1cccc(-n2nnc(C(=O)N3CCc4ccccc4C3)c2N)c1 | -20%
Cc1ccc(S(=O)(=O)Nc2cc(=O)[nH]c(SCc3ccccc3Cl)n2)cc1 | -9%
CCS(=O)(=O)N1CCC(C(=O)NCCN2CCN(Cc3ccccc3)CC2)CC1 | -5%
CC(CNC(=O)c1cc(Cl)ccc1[N+](=O)[O-])NC(=O)c1cc(Cl)ccc1[N+](=O)[O-] (stereo not given) | -2%
CC(C)CCn1c(SCCc2ccccc2)nc2c1c(=O)[nH]c(=O)n2C | u
O=C(Oc1coc(CSc2nnc(NC(=O)c3cccs3)s2)cc1=O)c1ccccc1 | -20%
CC1Cc2ccccc2N1C(=O)Cn1c(=O)oc2cc(S(=O)(=O)N3CCCCC3)ccc21 (stereo not given) | -16%
CCCN1CCC(=NNC(=O)c2ccc(Br)o2)CC1 | -6%
Cc1ccc(C(=O)c2ccc([N+](=O)[O-])cc2)c(C)c1 | -13%
Cc1ccc(NC(=O)c2cc(-n3cnnc3)ccc2Cl)cc1 | -8%
O=C(C1CCC(CNS(=O)(=O)c2cccc3cccnc23)CC1)N1CCc2ccccc21 (stereo not given) | u
CCCS(=O)(=O)N1CCN(C(=O)c2ccc(-c3ccccc3)cc2)CC1 | -22%
S=C(NCCC1=CCCCC1)Nc1ccc(Cl)cc1 | -14%
COC(C)C(C(=O)OCC1=CCN2CC[C@H](O)[C@@H]12)C(C)C (stereo not given in full) | -9%
CC(C)(N=NC(C)(C)C1=NCCN1)C1=NCCN1 | -12%
COc1cc(C(=O)Nc2nnc(CC(=O)N3CCOCC3)s2)cc(OC)c1OC | -10%
O=C(O)CSc1sc(=S)sc1SCC(=O)O | -10%
CCCS(=O)(=O)N1CCC(C(=O)N2CCN(C(=O)OCC)CC2)CC1 | 6%
O=S(=O)(c1ccccc1)N1CCN(Cc2ccccc2C(F)(F)F)CC1 | -5%
Cc1cc(C)n(-c2nc3c(c(=O)[nH]c(=O)n3C)n2CC(O)c2ccccc2)n1 (stereo not given) | -21%
COc1ccc(N2C(=O)CC3(CCCC3)CC2=O)cc1 | -14%
CC(=O)Nc1nnc(SCc2ccccc2F)s1 | -20%
Cc1nc2cc(CO)ccc2n1C | 1%
Cc1occc1-c1nnc(SCC(=O)Nc2ccccc2)n1CCc1ccccc1 | -2%
COc1ccc(C(c2nnnn2Cc2ccccc2)N2CCN(c3ccccc3)CC2)cc1 (stereo not given) | -12%
CC(C)N1C(=O)c2ccccc2C1C(=O)NC1CCCCCC1 (stereo not given) | -10%
CC(C)(O)C(=O)NN(Cc1ccccc1)c1ccccc1 | -11%
CCn1c(SCC(=O)NC2CCCCC2)nnc1-c1cccs1 | -12%
FC(F)(F)c1cccc(-c2nc3nc(Cl)c(Cl)nc3[nH]2)c1 | u
Cn1cc(C(=O)c2ccc(Cl)cc2Cl)cc1C(=O)N/N=C(\N)COc1ccccc1 | -19%
Cc1ccc(NC(=O)OCCN2CCN(Cc3ccccc3)CCC2=O)cc1C | -3%&-3%
CC(C)n1c(SCC(=O)N2CCCC2)nc2c1c(=O)n(C)c(=O)n2C | -4%
CCc1c(C)sc(NC(=O)CC#N)c1C#N | u
COc1cccc(C(=O)Nc2ncc3c(n2)CC(C)(C)CC3=O)c1 | -6%
CCCNC(=S)NCCN1CCCCC1 | 5%
COc1ccccc1-c1nnc(NC(=O)c2cccc(N3C(=O)CCC3=O)c2)o1 | -9%
COc1ccc(NC(=O)c2ccc(NCCCN3CCOCC3)c([N+](=O)[O-])c2)cc1 | -17%
CCC(=O)N/C(=N\OCc1ccc(F)cc1)c1nonc1NC(=O)CC | -1%
Cc1oc(-c2ccc(Cl)cc2)nc1CN1CCC(C(=O)N2CCN(Cc3ccccc3)CC2)CC1 | -9%
COc1cccc(/C=N/NC(=O)C(=O)N2CCCC2)c1OC | -7%
CCOc1cc2[nH]c(=S)n(C(C)C)c(=O)c2cc1OCC | -18%
COCCN1C(=O)c2ccccc2C(C(=O)NCC2CCCO2)C1c1c[nH]c2ccccc12 (stereo not given) | -9%

The list goes on.
SMILES | HPGD block
O=S(=O)(c1cc(Cl)ccc1Br)N1CCOCC1 | 3%
Cc1ccc(-c2nnc(Sc3nc4ccccc4o3)c3ccccc23)cc1 | -12%
N#Cc1ccc(N2Cc3ccccc3C2=NC(=O)c2cccs2)cc1 | -18%
COc1ccc(-c2nnn(CC(=O)c3c[nH]c4ccccc34)n2)cc1OC | -17%
COc1cc(C(=O)Oc2cccc(C=O)c2)cc(OC)c1OC | -1%
COC(=O)c1[nH]nc2c1C(=O)N(C1CCCCC1)C2=O | -24%
COc1ccc(/C=N/N=C2/NC(=O)C(c3ccccc3)S2)c(OC)c1 (stereo not given) | -16%
CC1CC(C)CN(CCCNC(=O)COc2cc(=O)n(C)c3ccccc23)C1 (stereo not given) | -15%
Cc1cc(C(=O)Nc2cc(C)n(Cc3ccc(Cl)cc3)n2)no1 | -2%
COc1cccc([C@@H]2Oc3ccc(OC)cc3C(=O)[C@H]2OC(=O)Nc2ccc(OC(F)F)cc2)c1 | -8%
Cn1cnnc1SCC(=O)c1ccco1 | -8%
C=CCn1c(SCC(=O)NC)nc2sc3c(c2c1=O)CCC3 | -1%
O=C(O)C[C@H](NC(=O)CP(=O)(O)O)C(=O)O.[NH-][C@@H]1CCCC[C@@H]1[NH-].[Pt] | 2%
CC/C(=N\O)c1ccc(O)c(OC)c1 | -2%
COc1cc2c(cc1OC)CN(C(=O)c1cccs1)CC2 | -6%
O=C(NC1CC1)c1ccc2c(c1)NC(=O)c1ccccc1S2 | 20µM*
Cc1cc(C)c(S(=O)(=O)N2CCCOC2CNC(=O)C(=O)NCCc2c[nH]c3ccccc23)c(C)c1 (stereo not given) | -8%
CC1CCCC(NC(=O)Cn2cc3c(n2)CCCCC3)C1C (stereo not given) | u
CC(=O)Nc1ccc(S(=O)(=O)N2CCN(CCCOc3cc(C)ccc3C)CC2)cc1 | -3%
Cc1ccc([N+](=O)[O-])cc1N=C(c1cccc([N+](=O)[O-])c1)N1CCOCC1 | -7%
O=C(CS(=O)c1ccc(C(F)(F)F)cc1[N+](=O)[O-])Oc1ccc(Cl)cc1 (stereo not given) | -10%
COc1cc(/C=C/C(=O)O)ccc1OCc1ccccc1C#N | -29%
CS(=O)(=O)N(CC(=O)NCc1ccccc1)C1CCCCC1 | -7%
COc1ccccc1CNC(=O)C1CCN(S(=O)(=O)c2cccc3cccnc23)CC1 | -3%
Cc1ccnc(NS(=O)(=O)c2ccc(Oc3ccccc3)cc2)c1 | -23%
COc1ccc(NC(=O)COc2ccccc2C#N)c(S(=O)(=O)N2CCCCC2)c1 | -15%
CCc1nc2c(cnn2-c2ccc(F)cc2)c(=O)n1-c1ccc(N2CCC(C)CC2)cc1 | u
CC(O/N=C/c1ccccc1OC(F)F)C(=O)Nc1cccc(S(=O)(=O)N2CCOCC2)c1 (stereo not given) | -6%
Cc1cccc(C)c1Nc1nnc(SCC(=O)Nc2sccc2C#N)s1 | -21%
Oc1ccc(Br)cc1-c1nc2cnccn2c1NC1CCCC1 | -2%
N#CNC(=Nc1cccc(F)c1)SCc1cccc(F)c1 | -1%
CCCc1oc(C(=O)O)cc1CN | -10%
C#CCOCCOCCOCCNc1nc(N2CCN(C(=O)[C@H]([C@@H](C)CC)n3cc(CCCN=C(N)N)nn3)CC2)nc(N2CCN(C(=O)[C@H](Cc3ccc(O)cc3)n3cc(CCO)nn3)CC2)n1 | -15%
Cc1ccc(NC(=O)CSc2ncn(-c3ccccc3)n2)cc1C | -6%
CN1/C(=C\C(=O)COC(=O)CNC(=O)c2ccccc2F)C(C)(C)c2ccccc21 | -19%
CS(=O)(=O)c1ccc(Cl)c(NC(=O)C2CC(=O)N(Cc3ccccc3)C2)c1 (stereo not given) | 3%
COC(=O)C(CCCCNC(=O)c1ccc([N+](=O)[O-])cc1)NC(=O)c1ccc([N+](=O)[O-])cc1 (stereo not given) | -6%
CC(C)CCNC(=O)NC(=O)CSc1nnc(COc2ccccc2Cl)o1 | -18%
CSc1nc2ccc(Cl)cc2[nH]1 | u
CCOC(=O)c1c(C)[nH]c(C(=O)OCC(=O)NC(C)C)c1C | -4%
O=c1cc(CO)occ1OCc1cccc(F)c1 | -7%
Cc1nn(CCc2n[nH]c(=S)n2-c2ccc(F)cc2)c(C)c1[N+](=O)[O-] | -30%
CC(=O)Nc1ccc(N(C(=O)c2cnccn2)C(C(=O)NC2CCCCC2)c2ccc(O)cc2)cc1 (stereo not given) | 0%
Cc1noc(C)c1S(=O)(=O)Nc1ccc(C(=O)N2CCN(c3cccc(Cl)c3)CC2)cc1 | -4%
Cc1ccc(Oc2ccccc2)c(NC=O)c1 | -9%
Cc1ccc2c3c(c(SCC(=O)Nc4nccs4)nc2c1)CCCC3 | -4%
c1ccc2c[n+](Cc3ccnc4ccccc34)ccc2c1 | -5%
O=C(Nc1ccccc1)c1cc(-n2cnnc2)ccc1Cl | -14%
O=C(c1cnn(C(=O)c2ccccc2)c1)c1ccccc1O | -18%
CN(c1ccccc1)S(=O)(=O)c1ccc(NC(=S)NC(=O)C2CC2)cc1 | -7%
Cc1ccc(C(=O)C2C(=O)c3ccccc3C2=O)cc1 | -12%
O=C(O)CCCNC(=O)Nc1ccccc1 | -5%
Cc1nc2cc(C(=O)O)ccc2n1C1CCCCC1 | -7%
COc1cc(CNC(C)(C)CO)cc(Br)c1OCc1ccc(Cl)cc1Cl | -4%

A draw from above in order of length of the SMILES, highest first:
SMILES | HPGD block
CN(c1ccccc1)S(=O)(=O)c1ccc(NC(=S)NC(=O)C2CC2)cc1 | -7%
O=C(c1cnn(C(=O)c2ccccc2)c1)c1ccccc1O | -18%
O=C(Nc1ccccc1)c1cc(-n2cnnc2)ccc1Cl | -14%
O=C(O)CCCNC(=O)Nc1ccccc1 | -5%
